UUG fidelity: modulators of start codon recognition fidelity in yeast. activity score, % at 18.7 µM. S. cerevisiae UUG-firefly luciferase reporter, luminescence/redox ratio. AID 602363. 350,000 tested, 0.13% active;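 active = replicate mean at a twofold rise or more, about +100% in these data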;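 note: firefly luciferase made from a UUG start codon reports start codon fidelity; reporter light over untreated wells divided by growth signal over untreated wells; some hits fall short of that in this replicate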
* hit, by the source's call. These rows are one share of the data; the hit share may differ from the screen's.

Sample of the layout, four compounds:
SMILES	UUG fidelity
C[C@@H](NC(=O)C[C@H]1C[C@H]2c3cc(NC(=O)C4CCC4)ccc3O[C@H]2[C@H](CO)O1)c1ccccc1	-5.0
COc1ccc(NC(=O)N(C)C[C@@H]2Oc3ccc(NS(=O)(=O)c4cccs4)cc3C(=O)N([C@H](C)CO)C[C@@H]2C)cc1	19.6
COc1ccc(C#Cc2ccc([C@H]3[C@@H](CO)N4CCCCN(Cc5ccncc5)C[C@H]34)cc2)cc1	-7.4
C[C@H]1CN([C@@H](C)CO)C(=O)CCCn2cc(nn2)CO[C@H]1CN(C)C(=O)Nc1ccc(-c2cccs2)cc1	6.8

The whole of this part (from the top)
SMILES	UUG fidelity
C[C@@H](NC(=O)C[C@H]1C[C@H]2c3cc(NC(=O)C4CCC4)ccc3O[C@H]2[C@H](CO)O1)c1ccccc1	-5.0
COc1ccc(NC(=O)N(C)C[C@@H]2Oc3ccc(NS(=O)(=O)c4cccs4)cc3C(=O)N([C@H](C)CO)C[C@@H]2C)cc1	19.6
COc1ccc(C#Cc2ccc([C@H]3[C@@H](CO)N4CCCCN(Cc5ccncc5)C[C@H]34)cc2)cc1	-7.4
C[C@H]1CN([C@@H](C)CO)C(=O)CCCn2cc(nn2)CO[C@H]1CN(C)C(=O)Nc1ccc(-c2cccs2)cc1	6.8
C[C@@H]1CN([C@H](C)CO)C(=O)c2cc(NS(=O)(=O)c3cn(C)cn3)ccc2O[C@@H]1CN(C)Cc1ccc(Cl)c(Cl)c1	-11.5
CCCN1C[C@H](C)[C@@H](OC)CN(C)C(=O)c2cc(NS(=O)(=O)c3cn(C)cn3)ccc2OC[C@H]1C	-2.6
COCC(=O)N1C[C@@H]2[C@H](c3ccccc31)[C@H](CO)N2Cc1cc(F)ccc1F	-11.5
O=C(CC(F)(F)F)N1C[C@H]2[C@@H](c3ccccc31)[C@@H](CO)N2C(=O)C1CCOCC1	22.6
O=C(Nc1ccc(F)cc1)N1[C@H](CO)[C@@H]2c3ccccc3NC[C@@H]21	-5.9
CCS(=O)(=O)N1CCCCN2[C@H](CO)[C@H](c3ccc(-c4ccccc4F)cc3)[C@@H]2C1	0.5
CCCNC(=O)N1[C@H](CO)[C@H](c2ccccc2)[C@H]1CNC(=O)c1ccc(F)cc1	3.9
CCCC(=O)Nc1ccc2c(c1)C(=O)N(C)[C@H]1CC[C@H](CC(=O)NCc3ccccc3Cl)O[C@H]1CO2	2.2
CNC[C@H]1Oc2ccc(NC(=O)Cn3cnnn3)cc2C(=O)N([C@@H](C)CO)C[C@H]1C	-17.9
C[C@H]1CN([C@@H](C)CO)C(=O)c2cccc(NC(=O)c3ccc(-c4nccs4)cc3)c2O[C@H]1CN(C)Cc1ccncc1	17.3
CO[C@H]1CN(C)C(=O)c2ccc(NC(=O)C3CC3)cc2OC[C@H](C)N(C)C[C@@H]1C	-9.1
COC(=O)N(C)C[C@H]1OCc2ccccc2-c2c(n(C)c3ccccc23)C(=O)N([C@H](C)CO)C[C@@H]1C	12.7
COc1cccc(-c2ccc([C@@H]3[C@H]4CN(Cc5cncnc5)CCCCN4[C@H]3CO)cc2)c1	-10.0
Cc1noc(C)c1NC(=O)Nc1cccc2c1O[C@@H](CN(C)S(=O)(=O)c1cn(C)cn1)[C@@H](C)CN([C@H](C)CO)C2=O	3.4
CN(C)C(=O)c1cccc(-c2ccc3c(c2)[C@H]2[C@H](CCN2C(=O)C2CCCCC2)[C@H](CO)N3)c1	-15.4
O=C(c1cccnc1)N1CCCCN2[C@H](C1)[C@H](c1ccc(C#Cc3cccnc3)cc1)[C@@H]2CO	-8.8
C[C@H]1CN([C@@H](C)CO)C(=O)c2cccc(NC(=O)c3ccc(-c4nccs4)cc3)c2O[C@@H]1CN(C)S(=O)(=O)c1ccc(F)cc1	16.1
COc1ccc(NC(=O)N2CCCCN3[C@@H](CO)[C@H](c4ccc(C5=CCCC5)cc4)[C@@H]3C2)cc1	12.7
CO[C@H]1CN(C)C(=O)c2ccc(NS(=O)(=O)c3ccc(C)cc3)cc2OC[C@@H](C)N(Cc2nccs2)C[C@H]1C	13.0
C[C@@H]1CN([C@@H](C)CO)C(=O)c2cc(NC(=O)C3CC3)ccc2O[C@@H]1CN(C)S(=O)(=O)c1ccccc1	31.6
C[C@H](CO)N1C[C@H](C)[C@H](CN(C)C)Oc2ccc(NS(=O)(=O)c3ccc(Cl)cc3)cc2CC1=O	3.9
CO[C@H]1CN(C)C(=O)c2cc(NC(=O)C3CCC3)ccc2OC[C@@H](C)N(Cc2cccnc2)C[C@@H]1C	-3.7
COc1ccc(CN(C)C[C@@H]2Oc3ccc(NS(=O)(=O)c4ccc(F)cc4)cc3CC(=O)N([C@@H](C)CO)C[C@H]2C)cc1	7.4
CN(C)C(=O)c1cccc(-c2ccc3c(c2)[C@@H]2[C@@H](CCN2C(=O)Cc2ccncc2)[C@@H](CO)N3)c1	-9.8
CC=Cc1ccc2n(c1=O)C[C@@H]1[C@@H](CO)[C@H](C(=O)NCc3ccccc3F)N(S(C)(=O)=O)[C@H]21 (mixture of isomers)	-2.5
Cc1ccc(-c2ccc3c(c2)O[C@@H](CN(C)Cc2ccc(F)cc2)[C@@H](C)CN([C@H](C)CO)S3(=O)=O)cc1	49.4
OC[C@H]1[C@H]2c3ccccc3NC[C@H]2N1CC1CCCCC1	-3.6
CO[C@@H]1CN(C)C(=O)c2cc(NC(=O)C3CC3)ccc2OC[C@H](C)N(Cc2cc(F)ccc2F)C[C@@H]1C	-3.8
Cc1noc(C)c1NC(=O)N(C)C[C@@H]1Oc2c(NC(=O)C3CCCCC3)cccc2C(=O)N([C@H](C)CO)C[C@H]1C	-26.1
COc1cccc(S(=O)(=O)N2CCCCN3[C@@H](CO)[C@@H](c4ccc(C#CC5CC5)cc4)[C@@H]3C2)c1	3.8
Cc1ccccc1S(=O)(=O)N1CCCCN2[C@H](CO)[C@@H](c3ccc(-c4cccnc4)cc3)[C@H]2C1	-9.7
CN1C(=O)c2cc(NC(=O)Cc3ccccc3)ccc2OC[C@@H]2O[C@H](CC(=O)NC3CCC3)CC[C@H]21	19.6
CN1CCN(C(=O)C[C@H]2CC[C@@H]3[C@H](COC[C@H](O)CN3Cc3cccc(Cl)c3)O2)CC1	2.8
CO[C@H]1CN(C)C(=O)c2ccc(NC(=O)C3CC3)cc2OC[C@H](C)N(Cc2cccnc2)C[C@@H]1C	-20.4
C/C=C/c1ccc([C@H]2[C@@H](CO)N3CCCCN(C(=O)NC4CCCC4)C[C@H]23)cc1	3.5
Cn1cnc(S(=O)(=O)N2C[C@H](O)COC[C@@H]3O[C@H](CC(=O)NCc4cc(F)cc(F)c4)CC[C@H]32)c1	-22.9
COc1cccc(S(=O)(=O)N2CC[C@@H]3[C@H](CO)N(C)c4ccc(C#Cc5cccnc5)cc4[C@@H]32)c1	-16.2
CO[C@H]1CN(C)C(=O)c2ccc(NC(=O)C3CC3)cc2OC[C@@H](C)N(CC2CCCC2)C[C@@H]1C	17.1
CCOC(=O)N(C)C[C@H]1OCc2ccccc2-c2c(n(C)c3ccccc23)C(=O)N([C@@H](C)CO)C[C@H]1C	26.6
C[C@@H]1CN([C@@H](C)CO)C(=O)c2cc(NC(=O)Cc3cn(C)c4ccccc34)ccc2O[C@H]1CN(C)S(=O)(=O)c1cn(C)cn1	5.0
O=C(O)C[C@H]1C[C@@H]2c3cc(NS(=O)(=O)c4ccccc4)ccc3O[C@@H]2[C@@H](CO)O1	6.1
COc1ccccc1C#Cc1ccc([C@H]2[C@@H](CO)N3CCCCN(C(=O)C4CCC4)C[C@H]23)cc1	14.2
CCNC(=O)[C@H]1[C@H](CO)[C@H]2Cn3c(ccc(-c4ccccc4)c3=O)[C@H]2N1C(=O)C1CC1	-8.0
COc1ccccc1CN1CC[C@@H]2[C@H]1c1cc(C3=CCCCC3)ccc1N[C@@H]2CO	11.9
C[C@H]1CN([C@@H](C)CO)C(=O)Cc2cc(NC(=O)c3ccncc3)ccc2O[C@H]1CN(C)CC1CCCCC1	-9.2
CO[C@H]1CN(C)C(=O)c2cc(NC(=O)C3CC3)ccc2OC[C@H](C)N(CC2CCCC2)C[C@H]1C	-14.2
COc1ccc(CN(C)C[C@H]2Oc3ccc(NS(=O)(=O)c4ccc(F)cc4)cc3C(=O)N([C@@H](C)CO)C[C@H]2C)cc1	-4.4
C[C@@H]1CN([C@H](C)CO)C(=O)Cc2cc(NC(=O)CCCN(C)C)ccc2O[C@@H]1CN(C)Cc1ccc(-c2ccccc2)cc1	-2.5
C[C@H]1CN([C@@H](C)CO)C(=O)c2cc(NC(=O)CCCN(C)C)ccc2O[C@@H]1CN(C)S(=O)(=O)c1ccc(Cl)cc1	8.6
C[C@@H]1CN([C@H](C)CO)C(=O)c2cc(C#CCc3ccccc3)cnc2O[C@@H]1CN(C)Cc1cccc(F)c1	-25.1
CO[C@@H]1CN(C)C(=O)c2cc(NC(=O)NC3CCCCC3)ccc2OC[C@@H](C)N(CC2CC2)C[C@@H]1C	30.7
C[C@H](CO)N1C[C@H](C)[C@H](CN(C)Cc2ccc(Oc3ccccc3)cc2)Oc2c(NC(=O)Nc3ccc4c(c3)OCO4)cccc2C1=O	29.4
CCC(=O)N1C[C@H](C)[C@H](OC)CN(C)C(=O)c2cc(NC(=O)c3ccccc3)ccc2OC[C@@H]1C	15.1
CCCC(=O)Nc1ccc2c(c1)C(=O)N(C)C[C@@H](OC)[C@@H](C)CN(Cc1ccccn1)[C@H](C)CO2	-15.3
COCC(=O)NC[C@H]1[C@@H](c2ccc(-c3ccccc3)cc2)[C@@H](CO)N1C(C)=O	-2.8
CN1C[C@@H]2[C@H](c3ccccc31)[C@@H](CO)N2C(=O)Nc1ccccc1	-3.5
(listing goes on)
SMILES	UUG fidelity
COCC(=O)Nc1ccc2c(c1)C(=O)N(C)[C@H]1CC[C@@H](CC(=O)NC3Cc4ccccc4C3)O[C@H]1CO2	1.5
Cc1ccccc1S(=O)(=O)N1CC[C@@H]2[C@@H](CO)N(C)c3ccc(-c4ccccc4)cc3[C@@H]21	-9.1
COc1ccccc1NC(=O)N1CC[C@@H]2[C@H]1c1cc(-c3ccc(F)cc3)ccc1N(C)[C@H]2CO	-7.0
CCCNC(=O)Nc1ccc2c(c1)C(=O)N(C)C[C@@H](OC)[C@@H](C)CN(C(=O)C1CCC1)[C@H](C)CO2	-2.2
COc1ccc(NC(=O)N2CCCCN3[C@@H](CO)[C@H](c4ccc(C#Cc5ccccn5)cc4)[C@@H]3C2)cc1	10.2
C[C@@H]1CN([C@@H](C)CO)C(=O)c2cc(NC(=O)Cc3ccccc3)ccc2O[C@H]1CN(C)C(=O)Nc1ccc(F)cc1	5.8
Cc1ccc(S(=O)(=O)N(C)C[C@@H]2Oc3ccc(NC(=O)c4ccncc4)cc3C(=O)N([C@@H](C)CO)C[C@@H]2C)cc1	-5.0
O=C(C[C@@H]1CC[C@@H]2[C@H](COC[C@@H](O)CN2Cc2nccs2)O1)NCc1ccc(-c2ccccc2)cc1	-3.4
CCCN1C[C@H](C)[C@H](OC)CN(C)C(=O)c2ccc(NC(=O)c3ccccc3)cc2OC[C@@H]1C	-6.6
CN1C[C@@H]2[C@H](c3ccccc31)[C@H](CO)N2C(=O)Nc1ccccc1	-4.3
CCCC(=O)Nc1ccc2c(c1)C(=O)N(C)C[C@@H](OC)[C@H](C)CN(C(=O)c1cccnc1)[C@H](C)CO2	2.8
COCC(=O)Nc1ccc2c(c1)[C@H]1C[C@H](CC(=O)NCc3ccncc3)O[C@H](CO)[C@H]1O2	-4.0
C[C@H]1CN([C@@H](C)CO)C(=O)c2cccc(NS(=O)(=O)c3ccccc3)c2O[C@H]1CN(C)Cc1ccc(-c2ccccc2)cc1	5.3
CO[C@H]1CN(C)C(=O)c2cc(NC(C)=O)ccc2OC[C@@H](C)N(CC2CC2)C[C@H]1C	-11.4
C[C@@H]1CN([C@H](C)CO)C(=O)CCCn2nncc2CO[C@@H]1CN(C)C(=O)Nc1ccc(F)cc1	-4.2
COc1ccc(NC(=O)N2CCCCN3[C@@H](CO)[C@@H](c4ccc(C#Cc5ccccn5)cc4)[C@@H]3C2)cc1	17.6
C[C@@H]1CN([C@@H](C)CO)C(=O)c2ccccc2-c2ccccc2CO[C@H]1CN(C)C(=O)Nc1ccccc1	0.0
C[C@H]1CN([C@@H](C)CO)C(=O)c2cccc(NC(=O)C3CCCCC3)c2O[C@H]1CN(C)Cc1ccc2c(c1)OCO2	5.7
C[C@H]1CN([C@@H](C)CO)C(=O)c2cc(NC(=O)CCC(F)(F)F)ccc2O[C@@H]1CN(C)C(=O)Nc1ccccc1	-17.0
C[C@@H](O)C#Cc1ccc([C@H]2[C@H]3CN(C(=O)c4ccc5c(c4)OCO5)CCCCN3[C@H]2CO)cc1	-0.5
O=C(C[C@@H]1CC[C@@H]2[C@H](COC[C@H](O)CN2Cc2cccc(F)c2)O1)NCCc1ccncc1	-12.0
Cc1nn(C)cc1NC(=O)C[C@H]1CC[C@@H]2[C@@H](COc3ccc(NC(=O)Nc4cccc(Cl)c4)cc3C(=O)N2C)O1	-17.1
Cc1ccccc1S(=O)(=O)N1C[C@H]2[C@@H](c3ccccc31)[C@H](CO)N2C(=O)CC1CC1	6.3
O=S(=O)(c1cccc(F)c1)N1CC[C@@H]2[C@@H](CO)Nc3ccc(C#Cc4cccc(F)c4)cc3[C@@H]21	-10.8
Cc1noc(C)c1NC(=O)N(C)C[C@@H]1Oc2c(NC(=O)Nc3ccc4c(c3)OCO4)cccc2C(=O)N([C@@H](C)CO)C[C@H]1C	9.4
COc1cccc(-c2ccc3c(c2)[C@@H]2[C@@H](CCN2S(=O)(=O)c2ccc(F)cc2)[C@H](CO)N3C)c1	4.6

Some of the entries above in another layout.
Molecule,UUG fidelity
O=C(C[C@@H]1CC[C@@H]2[C@H](COC[C@H](O)CN2Cc2cccc(F)c2)O1)NCCc1ccncc1,-12.0
Cc1nn(C)cc1NC(=O)C[C@H]1CC[C@@H]2[C@@H](COc3ccc(NC(=O)Nc4cccc(Cl)c4)cc3C(=O)N2C)O1,-17.1
Cc1ccccc1S(=O)(=O)N1C[C@H]2[C@@H](c3ccccc31)[C@H](CO)N2C(=O)CC1CC1,6.3
O=S(=O)(c1cccc(F)c1)N1CC[C@@H]2[C@@H](CO)Nc3ccc(C#Cc4cccc(F)c4)cc3[C@@H]21,-10.8
Cc1noc(C)c1NC(=O)N(C)C[C@@H]1Oc2c(NC(=O)Nc3ccc4c(c3)OCO4)cccc2C(=O)N([C@@H](C)CO)C[C@H]1C,9.4

From PubChem BioAssay
